# Ecoli rRNA inh – selective bacterial rRNA inhibition in E. coli | AID 720706 | E. coli WT GFP vs humanized-ribosome RFP mutants, fluorescence, 24 h; hits give low values; DMSO median 0, no signal -100 | GFP signal change (wild-type ribosome), % (no concentration beside the values) | actives 1.6% (n = 350,000);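 active = significant combined selectivity score with lowered wild-type GFP, culture density cut under 30%, mutant RFP and density less affected; inactive = any of these conditions unmet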; note: one replicate is shown; some compounds called inactive have numbers as strong as hits
# Ecoli rRNA inh OD600 – recorded beside Ecoli rRNA inh, whose call it bears; OD600 change, %; measured here: OD600 growth;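 optical density of the mix in the first replicate; 0 = DMSO median and -100 = no signal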
# Ecoli rRNA inh RFP – recorded beside Ecoli rRNA inh, whose call it bears; RFP signal change, %; measured here: RFP humanized mutant strains;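 first replicate; 0 = DMSO median and -100 = no signal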
# * marks the source's active call; other numbers are inactive results; & = joins results of further samples. Some of the compounds tested; count on the stated rates, not on these rows.
# Every second line gives: Ecoli rRNA inh	Ecoli rRNA inh OD600	Ecoli rRNA inh RFP
Cc1ccc(S(=O)(=O)N(C)C[C@H]2Oc3c(NS(=O)(=O)c4ccccc4)cccc3C(=O)N([C@H](C)CO)C[C@H]2C)cc1
    -2	-8	2.4
C[C@@H]1CN([C@H](C)CO)C(=O)c2cc(NC(=O)CCCN(C)C)ccc2O[C@@H](C)CCCCO[C@H]1CN(C)Cc1ccc(C(F)(F)F)cc1
    2	-1	4.9
CCCNC(=O)N(C)C[C@@H]1Oc2ncc(C#CC3CC3)cc2C(=O)N([C@H](C)CO)C[C@@H]1C
    2	11	0.5
CC(=O)N(C)C[C@H]1Oc2cc(C#Cc3ccc(F)cc3)ccc2S(=O)(=O)N([C@H](C)CO)C[C@@H]1C
    -7	-2	-1.9
C[C@@H]1CCCCO[C@@H](CN(C)C(=O)Nc2ccc3c(c2)OCO3)[C@@H](C)CN([C@H](C)CO)C(=O)c2cc(NS(C)(=O)=O)ccc2O1
    1	8	-0.9
COc1ccc(CNC(=O)O[C@H]2Cn3c(=O)ccc(=O)n3[C@@H]3CN(S(=O)(=O)c4ccc(C)cc4)C[C@]23O)cc1OC
    10	6	1.0
O=C(O)C[C@@H]1C[C@@H]2c3cc(NC(=O)C4CCC4)ccc3O[C@@H]2[C@H](CO)O1
    -1	2	-1.9
COc1ccc2c3c([nH]c2c1)[C@H](CO)N(Cc1nccs1)CC31CN(C(=O)C2CCCC2)C1
    2	-6	5.4
CC(C)CNC(=O)C1(C)CCCN1C(=O)c1c(Cl)cccc1Cl (stereo unspecified)
    -1	0	-0.3
O=C(C[C@@H]1C=C[C@@H](NS(=O)(=O)c2ccc(F)cc2)[C@H](CO)O1)N1CCC(Cc2ccccc2)CC1
    0	-32	24
CCS(=O)(=O)Nc1ccc2c(c1)C(=O)N(C)C[C@@H](OC)[C@H](C)CN(C(=O)c1ccc3c(c1)OCO3)[C@@H](C)CO2
    3	-3	-2.1
C[C@@H]1CN([C@H](C)CO)S(=O)(=O)c2ccc(C3=CCCCC3)cc2O[C@@H]1CN(C)S(C)(=O)=O
    1	-23	-6.6
COc1ccc(NC(=O)N(C)C[C@H]2OCCCC[C@H](C)Oc3ccc(NC(=O)Nc4ccc5c(c4)OCO5)cc3C(=O)N([C@@H](C)CO)C[C@@H]2C)cc1
    7&-6	16&-3	-0.3&-1.1
CC(C)NC(=O)Nc1ccc2c(c1)C(=O)N([C@H](C)CO)C[C@H](C)[C@H](CN(C)C(=O)CCC(F)(F)F)OCCCC[C@@H](C)O2
    1	6	-2.0
COc1ccc(S(=O)(=O)Nc2ccc3c(c2)C(=O)N([C@H](C)CO)C[C@@H](C)[C@H](CN(C)C(=O)NC2CCCCC2)OCCCC[C@@H](C)O3)cc1
    2	-5	6.2
C[C@@H]1CCCCO[C@H](CN(C)Cc2ccc3c(c2)OCO3)[C@@H](C)CN([C@H](C)CO)C(=O)c2cc(NC(=O)c3ccncc3)ccc2O1
    -2	-11	-2.6
C[C@@H]1CCCCO[C@H](CN(C)S(C)(=O)=O)[C@@H](C)CN([C@H](C)CO)C(=O)c2cc(NC(=O)Cc3ccccc3)ccc2O1
    4	4	-0.7
C[C@H](CO)N1C[C@H](C)[C@@H](CN(C)Cc2ccccc2F)Oc2ncc(-c3ccccc3F)cc2C1=O
    -3	3	3.0
COc1ccc(CN(C)C[C@@H]2Oc3ccc(NC(=O)CCCCCC(=O)Nc4ccccc4N)cc3CC(=O)N([C@H](C)CO)C[C@H]2C)cc1
    0	2	-1.0
Cc1ccc(S(=O)(=O)N2C[C@H]3n4c(=O)ccc(=O)n4C[C@H](OC(=O)NCC4CCCCC4)[C@@]3(O)C2)cc1
    -4	-19	-0.1
C[C@H]1CN([C@@H](C)CO)C(=O)c2cccc(NC(=O)Nc3ccc(C(F)(F)F)cc3)c2O[C@@H]1CN(C)C(=O)Nc1ccc2c(c1)OCO2
    1	0	1.0
C[C@H]1CN([C@@H](C)CO)C(=O)c2c(c3ccccc3n2C)-c2ccccc2CO[C@H]1CN(C)S(=O)(=O)c1ccccc1C#N
    1	6	-0.5
Cc1ccc(C)c(N2CCN(C(c3ccccc3)c3nnnn3C(C)(C)C)CC2)c1 (stereo unspecified)
    -1	16	-2.3
CC(=O)N1[C@H](C(=O)NC2CCC2)[C@@H](CO)[C@@H]2Cn3c(ccc(-c4ccc(F)cc4)c3=O)[C@@H]21
    -1	-2	-2.9
COc1ccc(Oc2cccc3c2S(=O)(=O)N(C2CC2)C[C@@H](COCc2ccccc2)O3)cc1
    3	14	3.1
COCCCNC(=O)c1csc([C@@H]2C[C@H](O)[C@@H](CO)O2)n1
    6	13	-3.7
CCCC(=O)Nc1ccc2c(c1)C(=O)N(C)[C@@H]1CC[C@@H](CC(=O)NCc3ccccc3Cl)O[C@@H]1CO2
    -1	-5	2.3
C[C@@H]1CCCCO[C@@H](CN(C)Cc2ccccc2)[C@@H](C)CN([C@@H](C)CO)C(=O)c2cc(NC(=O)CCCN(C)C)ccc2O1
    2	3	3.0
C[C@H]1CCCCO[C@H](CN(C)C)[C@@H](C)CN([C@@H](C)CO)C(=O)c2cc(NC(=O)Nc3ccc(C(F)(F)F)cc3)ccc2O1
    -57	-80	-17
COc1ccccc1NC(=O)N(C)C[C@H]1OCc2cn(nn2)CCCC(=O)N([C@H](C)CO)C[C@H]1C
    -4	5	-1.2
CO[C@@H]1CN(C)C(=O)c2ccc(NC(=O)C3CC3)cc2OC[C@H](C)N(C(=O)c2cnccn2)C[C@H]1C
    1	2	0.5
CO[C@H]1CN(C)C(=O)c2cc(NC(=O)c3cnccn3)ccc2OC[C@H](C)N(CCc2ccccc2)C[C@@H]1C
    -4	-2	2.4
COc1ccc(S(=O)(=O)Nc2ccc3c(c2)CC(=O)N([C@@H](C)CO)C[C@@H](C)[C@H](CN(C)S(=O)(=O)c2ccccc2)O3)cc1
    -3	-10	-0.8
COc1ccc(F)cc1-c1cc(C(=O)NCc2cccc(C(F)(F)F)c2)[nH]n1
    -2	-38	-1.3
CCOC(=O)c1c(C)oc(=O)c(CC)c1O
    6	12	-6.6
O=C(C[C@@H]1CC[C@@H]2[C@H](COC[C@@H](O)CN2C(=O)c2cnccn2)O1)N1CCN(c2ccccc2)CC1
    -2	5	-0.3
COc1ccc([C@H]2C[C@H](n3cc(COC(=O)c4ccccc4)nn3)[C@@H](O)CN2Cc2cccs2)cc1
    3	7	3.3
O=C(C[C@H]1CC[C@@H]2[C@H](COC[C@H](O)CN2C(=O)Nc2ccc(C(F)(F)F)cc2)O1)NCC1CCCCC1
    -51	-77	-19
C=CCn1c(SCC(=O)Nc2cc(C)on2)nc2ccccc21
    0	-4	-3.9
C[C@H](CO)N1C[C@H](C)[C@H](CN(C)C(=O)Cc2ccncc2)Oc2ncc(C3=CCCC3)cc2C1=O
    0	0	-2.0
COc1ccc(NC(=O)C2(C)Cc3c(-c4cccc(NC(C)=O)c4)ccnc3O2)cc1 (stereo unspecified)
    -1	-16	2.7
CC1CCCCC1=NNC(=O)c1ccccc1 (stereo unspecified)
    16	14	3.8
COc1ccc(S(=O)(=O)N(C)C[C@H]2OCc3ccccc3-c3ccccc3C(=O)N([C@@H](C)CO)C[C@@H]2C)cc1
    4	-7	1.5
N#Cc1ccccc1COC(=O)c1cc(S(=O)(=O)N2CCOCC2)ccc1F
    -6	-5	5.3
COc1ccc(C(C)C)cc1-c1cc(C(=O)NCc2cc(C(F)(F)F)cc(C(F)(F)F)c2)[nH]n1
    20	28	1.5

# Nothing new here: an excerpt of the list.
# Every second line gives: Ecoli rRNA inh	Ecoli rRNA inh OD600	Ecoli rRNA inh RFP
CO[C@@H]1CN(C)C(=O)c2ccc(NC(=O)C3CC3)cc2OC[C@H](C)N(C(=O)c2cnccn2)C[C@H]1C
    1	2	0.5
CO[C@H]1CN(C)C(=O)c2cc(NC(=O)c3cnccn3)ccc2OC[C@H](C)N(CCc2ccccc2)C[C@@H]1C
    -4	-2	2.4
COc1ccc(S(=O)(=O)Nc2ccc3c(c2)CC(=O)N([C@@H](C)CO)C[C@@H](C)[C@H](CN(C)S(=O)(=O)c2ccccc2)O3)cc1
    -3	-10	-0.8
COc1ccc(F)cc1-c1cc(C(=O)NCc2cccc(C(F)(F)F)c2)[nH]n1
    -2	-38	-1.3
CCOC(=O)c1c(C)oc(=O)c(CC)c1O
    6	12	-6.6

# More results follow:
mol,Ecoli rRNA inh,Ecoli rRNA inh OD600,Ecoli rRNA inh RFP
C[C@H](CO)N1C[C@H](C)[C@@H](CN(C)C(=O)CCC(F)(F)F)OCCCC[C@H](C)Oc2ccc(NC(=O)C3CCCCC3)cc2C1=O,-3,-9,0.6
C[C@@H]1CN([C@H](C)CO)C(=O)c2cccc(NC(=O)C3CCOCC3)c2O[C@@H]1CN(C)S(=O)(=O)c1cccs1,-3,8,0.5
CO[C@@H]1CN(C)C(=O)c2cc(NC(=O)c3ccc(F)cc3)ccc2OC[C@H](C)NC[C@H]1C,0,-5,-2.6
C[C@H]1CN([C@@H](C)CO)C(=O)c2cc(C#CC(C)(C)O)cnc2O[C@@H]1CN(C)Cc1ccccn1,1,4,-0.5
Cc1noc(C)c1S(=O)(=O)N(C)C[C@@H]1Oc2ccc(NC(=O)Nc3ccccc3)cc2C(=O)N([C@@H](C)CO)C[C@@H]1C,-1,-5,2.3
Cc1ccccc1-c1ccc2c(c1)O[C@H](CN(C)Cc1ccc(C(=O)O)cc1)[C@@H](C)CN([C@H](C)CO)S2(=O)=O,-8,-8,-1.9
O=C(C[C@@H]1C[C@H]2c3cc(NC(=O)CC4CC4)ccc3O[C@H]2[C@H](CO)O1)NCc1cccc(F)c1,-3,-5,-2.8
Cc1ccc(S(=O)(=O)N(C)C[C@@H]2Oc3ccc(NC(=O)NC4CCCCC4)cc3CC(=O)N([C@H](C)CO)C[C@@H]2C)cc1,-5,-12,2.3
Cc1cccc(CN(C)C[C@@H]2Oc3ncc(-c4ccccc4)cc3C(=O)N([C@H](C)CO)C[C@@H]2C)c1,-1,2,2.8
CNC[C@H]1Oc2c(NC(=O)Nc3ccccc3)cccc2C(=O)N([C@H](C)CO)C[C@H]1C,4,1,0.2
CCOc1ccc(Nc2ccc(S(=O)(=O)N3CCOCC3)cc2[N+](=O)[O-])cc1,7,5,0.9
Cc1ccccc1-c1ccc2c(c1)O[C@H](CN(C)C(=O)Nc1ccc(F)cc1)[C@H](C)CN([C@H](C)CO)S2(=O)=O,-1,-5,-0.1
C/C=C/c1ccc([C@@H]2[C@@H](CO)N(C(C)=O)[C@@H]2CN(C)C(=O)c2ccccn2)cc1,0,5,-3.3
COc1ccc(CN(C)C[C@@H]2Oc3ccc(NS(=O)(=O)c4cn(C)cn4)cc3CC(=O)N([C@H](C)CO)C[C@H]2C)cc1,8,16,-2.3
O=C(C(=O)N1CCC(CNC(=O)C2COc3ccccc3O2)CC1)c1cc2ccccc2o1 (stereo unspecified),-9,-29,-1.2
COc1ccc(C(=O)Nc2ccc3c(c2)C(=O)N(C)[C@@H]2CC[C@@H](CC(=O)NCC4CC4)O[C@H]2CO3)cc1,-2,0,-1.1
C[C@H]1CN([C@@H](C)CO)S(=O)(=O)c2ccc(-c3cccc(C(=O)N(C)C)c3)cc2O[C@@H]1CN(C)C(=O)Cc1ccccn1,-3,0,-3.6
C[C@@H]1CN([C@@H](C)CO)C(=O)c2cc(NC(=O)Cc3cn(C)c4ccccc34)ccc2O[C@@H]1CN(C)C(=O)Nc1ccccc1,0,7,4.7
CC1(c2cccc(Br)c2)NC(=O)N(CC(=O)NCCC2=CCCCC2)C1=O (stereo unspecified),-2,-26,2.8
CC(C)CC#Cc1cnc2c(c1)C(=O)N([C@H](C)CO)C[C@@H](C)[C@H](CN(C)C(=O)c1ccccc1)O2,1,-3,-1.2
COCC(=O)N1CCC2(CC1)CN(C(=O)NC1CCCC1)[C@H](CO)c1c2c2ccc(OC)cc2n1C,-2,-10,1.9
O=C(C[C@@H]1CC[C@H]2[C@@H](COC[C@@H](O)CN2Cc2ccccc2F)O1)NCc1ccccc1F,1,8,-1.8
C[C@@H]1CN([C@H](C)CO)C(=O)Cc2cc(NC(=O)Cc3ccccc3)ccc2O[C@@H]1CN(C)C(=O)Nc1ccc(C(F)(F)F)cc1,0,-7,-1.1
O=C(C1CCOCC1)N1C[C@H]2[C@@H](c3ccccc31)[C@H](CO)N2C(=O)Nc1cccc(F)c1,3,7,0.1
CCCC#Cc1cnc2c(c1)C(=O)N([C@H](C)CO)C[C@@H](C)[C@H](CN(C)Cc1ccccc1)O2,3,7,-2.2
Cc1cc(C(=O)Nc2cccc3c2O[C@@H](CN(C)C(=O)Nc2ccc(C(F)(F)F)cc2)[C@@H](C)CN([C@@H](C)CO)C3=O)n(C)n1,-5,-2,0.2
C[C@H](CO)N1C[C@H](C)[C@H](CN(C)C(=O)C2CC2)Oc2cc(C#Cc3ccncc3)ccc2S1(=O)=O,-4,-1,2.0
Cc1noc(C)c1S(=O)(=O)N(C)C[C@H]1OCCCC[C@H](C)Oc2ccc(NS(=O)(=O)c3ccccc3)cc2C(=O)N([C@H](C)CO)C[C@H]1C,1,2,-1.7
O=C1NC[C@H](CCCCN2CCN(CCC3CCCCC3)C(=O)C2=O)N(CCC2CCCCC2)C1=O,-16,-13,3.3
CCCN1[C@@H]2c3ccc(-c4cccnc4)c(=O)n3C[C@@H]2[C@@H](CO)[C@@H]1C(=O)NCCCN1CCOCC1,5,6,0.9

# Screens (PubChem)
